Sfp inh = qHTS Assay for Inhibitors of Bacillus subtilis Sfp phosphopantetheinyl transferase (PPTase) | 3.5% of 310,000 active | Potency, µM, for inactives: max response, negative = inhibition, actives largely listed as inhibitors | 4'-phosphopantetheinyl transferase ffp (Bacillus subtilis), Q9F4F7 | Biochemical Sfp PPTase activity, qHTS; active = well fitted inhibition curve with a large enough effect; inconclusive = small, poorly fitted or top-dose-only effect, or another doubt; inactive = no such curve, though single readings can be large or run the other way;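 also: the enzyme is Sfp with the accession as filed and its product quenches rhodamine fluorescence; potency is read from the fitted curve at half-maximal effect; 0% = enzyme reaction without inhibitor and -100% = no enzyme wells; top concentration of the series not given in the record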
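Buffer: 50 mM Hepes-Na pH 7.6, 10 mM MgCl2, 0.01% Nonidet P-40, 0.01% BSA. Enzyme 15 nM, pre-exposed to compound 15 min; substrates then added and fluorescence change tracked over 30 min.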
ClpP mod = qHTS Assay for Activators of ClpP; Potency, µM (titrated, usually from 57.5 µM), for the others: top-dose activity change, negative = active; 1.9% of 340,000 active; ATP-dependent Clp protease proteolytic subunit (Bacillus subtilis (strain 168)), P80244; purified B. subtilis ClpP, FRET peptide cleavage, 20 min; active = well fitted falling curve with a large enough effect; inconclusive = small, poorly fitted or top-dose-only effect; inactive = no such curve, though single readings can be large or run the other way; also: potency is read from the fitted curve at half-maximal effect; the source files actives as falling curves though it sought activators and does not explain the sign; nearly all actives have a fitted effect of over 65% in size; many hits overshoot -100%
Target sequence (P80244 whole entry, looked up): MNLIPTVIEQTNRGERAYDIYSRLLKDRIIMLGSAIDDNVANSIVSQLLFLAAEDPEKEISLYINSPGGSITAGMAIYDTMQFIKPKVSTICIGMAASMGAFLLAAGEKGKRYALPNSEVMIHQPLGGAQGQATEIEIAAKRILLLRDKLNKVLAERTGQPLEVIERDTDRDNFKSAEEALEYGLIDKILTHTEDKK
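ClpP 10 microg/mL final, pH 8 Tris/KCl buffer with BSA, glycerol, Tween-20; compound pinned in; FRET-FV substrate; RT 20 min; Ex320/Em430; ΔFRET vs ADEP 5.8 microM, DMSO, no enzyme.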
TRPML1 blocker = qHTS for Inhibitors of the Human Mucolipin Transient Receptor Potential 1 (TRPML1); activity change, negative = inhibition, % (no concentration beside the values); Mucolipin-1 (Homo sapiens), Q9GZU1; 0.02% of 390,000 active; TRPML1-inducible cells, Ca2+ dye fluorescence, FDSS; hits give low values; inhibition of EC80 agonist-evoked calcium signal; AID 624415, 2012; in the data active means activity change below about -50%; inconclusive means about -30% to -50%; inactive means above about -30%;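 also: stimulus is agonist 54-4 at its EC80 concentration; % is scaled to controls: 0 for no effect and ±100 for the full control effect; compound concentration not given in the record; the text of the record puts the active cut at -80%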
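TRPML1-DL cells, Tet-induced overnight (~16 h, 37 °C) at 1,500 cells/well, were loaded with Ca8 no-wash dye plus quencher for 45-90 min at room temperature. Compounds were pinned during FDSS kinetic reading; agonist 54-4 at EC80 (4 uM final) then added.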
PINK1 expr mod = A Quantitative High throughput Screen to Identify Chemical Modulators of PINK1 Expression; PINK1 immunofluorescence, high-content cytometry, 24 h; Potency, µM (doses to about 76.6 µM), for inactives: top-dose activation (PINK1 increase), most hits filed as activators; 0.2% of 410,000 active; active = well fitted activation curve with a large enough effect; inconclusive = small, poorly fitted or top-dose-only effect; inactive = flat fitted curve, though single readings scatter; cell line not stated here;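 also: potency is read from the fitted curve at half-maximal effect; % of control where 0% means no effect; nearly all actives have a fitted effect of over 65% in size; a mitochondrial uncoupler was the plate control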
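Stable cell line treated 24 h with compounds at 5 concentrations (CCCP controls), then fixed and immunostained for PINK1 plus nuclear and cell stains; PINK1 immunofluorescence quantified by laser-scanning microplate cytometry.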
TRPV1 potentiator = HTS Assay for Compounds that Act as Potentiators of the Vanilloid Receptor 1 | 0.02% of 320,000 active | Transient receptor potential cation channel subfamily V member 1 (Homo sapiens), Q8NER1 | potentiation, % at 8.33 µM | TRPV1-expressing cells, Fluo-8 calcium influx, capsaicin EC20 potentiation; host cell line not named in the record; control for the full effect not named in the record; active means potentiation above 80%; inconclusive means 30% to 80%; inactive means below 30%; also: 0% is about no effect
Target sequence (Q8NER1 whole entry, looked up): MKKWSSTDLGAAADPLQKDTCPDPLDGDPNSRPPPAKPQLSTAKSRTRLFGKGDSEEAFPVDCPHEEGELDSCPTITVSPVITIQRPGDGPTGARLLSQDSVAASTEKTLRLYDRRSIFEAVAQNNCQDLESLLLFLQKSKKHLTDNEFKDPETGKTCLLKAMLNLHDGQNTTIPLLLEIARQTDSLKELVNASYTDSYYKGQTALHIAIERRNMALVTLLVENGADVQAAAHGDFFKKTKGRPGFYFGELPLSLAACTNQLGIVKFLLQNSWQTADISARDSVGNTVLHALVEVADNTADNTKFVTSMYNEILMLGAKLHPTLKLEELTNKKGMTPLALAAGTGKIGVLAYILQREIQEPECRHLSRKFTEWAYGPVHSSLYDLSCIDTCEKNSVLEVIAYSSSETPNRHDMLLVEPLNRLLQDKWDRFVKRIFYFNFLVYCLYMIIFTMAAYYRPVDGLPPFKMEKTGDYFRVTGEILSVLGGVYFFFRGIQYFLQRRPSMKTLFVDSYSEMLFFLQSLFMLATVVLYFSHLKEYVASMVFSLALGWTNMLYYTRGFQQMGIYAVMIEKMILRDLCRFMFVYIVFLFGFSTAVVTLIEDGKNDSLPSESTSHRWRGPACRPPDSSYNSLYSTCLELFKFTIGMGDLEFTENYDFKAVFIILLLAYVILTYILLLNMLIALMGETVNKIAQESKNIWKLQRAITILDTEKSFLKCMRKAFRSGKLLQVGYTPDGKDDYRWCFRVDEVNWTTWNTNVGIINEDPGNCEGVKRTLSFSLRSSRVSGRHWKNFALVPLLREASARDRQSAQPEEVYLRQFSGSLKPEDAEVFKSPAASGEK
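TRPV1-expressing cells were cultured overnight at 35.5C and loaded with Fluo-8 calcium dye for 40 to 90 min at room temperature. After a 10 s baseline, compound was added and calcium influx was read kinetically for 3 min (ex 480/em 520 nm).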
TRPML1 ag = qHTS for Agonists of the Human Mucolipin Transient Receptor Potential 1 (TRPML1); Mucolipin-1 (Homo sapiens), Q9GZU1; TRPML1-expressing cells, Ca2+ dye fluorescence, FDSS; host cell line not named in the record; reference of the full effect not given here; activation, % (test concentration not listed); 0.12% of 410,000 active; AID 624414, 2012; in the data active = activation above about 50%; inconclusive = about 30% to 50%; inactive = below about 30%; also: 0% is about no effect; the text of the record puts the active cut at 80%
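Cells: TRPML1-DL, 1X Tet inducer, ~16 h at 37 degrees C/5% CO2. Dye: ABD Ca8 no-wash + quencher, 45-90 min RT. Read: 10 s baseline, compound add, 110 s agonist phase; 54-4 EC80 (4uM final), 110 s antagonist phase.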
Menin MLL FP FL = qHTS Assay for Inhibitors Targeting the Menin-MLL Interaction in MLL Related Leukemias: Competition With Fluorescein Labeled MLL-derived Peptide; 290,000 tested, under 10 active; FP activity change, % at 61.4 µM; Fluorescence polarization, fluorescein-MLL peptide displacement from menin; inconclusive = falling polarisation curve, or a change in total fluorescence; inactive = total fluorescence flat and polarisation flat or rising; no compound was filed as active; the % refers to the polarisation; negative = inhibition;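 also: % of control where 0% means no effect; inhibitors lower the polarisation; unlabelled MLL peptide was the positive control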
Starred values were filed as active, the others as inactive; ? = inconclusive; . = not tested or not shown; & = joins results of further samples.

Values in the order – Sfp inh, ClpP mod, TRPML1 blocker, PINK1 expr mod, TRPV1 potentiator, TRPML1 ag, Menin MLL FP FL
Cc1ccc(-n2nnc(-c3ccnc4ccccc34)n2)cc1
    2%, -7.2%, -4, 0.4%, -3, -1.1, 0.7
CCOC(=O)c1c(NC(=O)c2ccc(S(=O)(=O)N3CCOCC3)cc2)sc2c1CC(C)(C)NC2(C)C
    10%, -3.8%, -11, -0.4%, 0, 0.4, 0.9
O=C1C2CC=C(Cl)CC2C(=O)N1c1ncn[nH]1 (configuration not stated)
    6%, 0.4%, 3, -1.2%, 4, 1.8, 1.9
[2H]C([2H])(CCOS(N)(=O)=O)c1ccccc1
    5%, 0.1%, -12, -0.5%, -5, 0.4, -2.3
CCOC(=O)C1(P(=O)(c2ccc(Cl)cc2)c2ccc(Cl)cc2)CCC1
    3%, -0.4%, -6, -1.4%, -10, 0.0, 0.0
CN1CCN(C(=O)C2CCCCC2C(=O)O)CC1 (configuration not stated)
    10%, -2.6%, -3, 3.1%, 1, 0.2, -2.3
CCC(C(=O)OC)n1cnc2c(nnn2-c2ccc(C)cc2)c1=O (configuration not stated)
    8%, -3.0%, 44, -1.0%, -15, 0.1, 2.1
C=CCN=C1N[C@@H](c2cccc(C(F)(F)F)c2)C(C(=O)OC)=C(C)N1CC
    12%&-7%, 0.9%, -6, -0.2%, 6&0, -0.1, -1.3&0.0
CN(C(=O)C1CCOC1)c1nnc(C2CCOC2)s1 (configuration not stated)
    5%, -1.3%, 25, 0.2%, -2, -0.1, 4.5
CN1C2=C(C#N)C(c3ccccc3)(C(F)(F)F)NC(=O)N2c2ccccc21 (configuration not stated)
    -1%, -26%, 2, 15%, -16, -1.0, 1.0
COc1ccccc1NC(=O)Cc1nc(=O)[nH]c(=O)[nH]1
    ., 0.1%, -5, 0.1%, ., -0.7, .
O=C(O)C1C=CC(C(=O)O)c2ccccc21 (configuration not stated)
    ., -1.6%, 26, -1.7%, ., 0.1, .
Cc1nnc(Cc2ccco2)c2n[nH]c(C)c12
    ., 19%, 7, -1.2%, ., 0.1, .
O=c1ccn(Cc2ccc(F)cc2)c2ccnc(C(F)(F)F)c12
    -3%, -2.6%, -4, -2.0%, -14, -0.1, 5.0
COc1ccc(CN(CC(=O)NC2CCCC2)C(=O)CN2C(=O)COc3ccccc32)cc1
    10%, 0.5%, 6, 2.7%, 10, -0.8, 1.6
O=Cc1ccc(OCc2nnsc2Cl)cc1
    -2%, ., 15, -0.7%, 4, 1.0, -0.7
CN1C(=O)CC(N2CCN(Cc3ccc(Cl)cc3)CC2)C1=O (configuration not stated)
    7%, -0.8%, -2, -2.1%, -14, -0.3, 0.9
O=C(NCc1ccc2c(c1)OCO2)c1ccc2c(c1)N(Cc1ccccc1F)C(=O)c1ccccc1S2
    ., -0.7%, 37, -1.6%, ., 1.6, .
COc1ccc(OC)c2c1sc(=NC(=O)C1CC1)n2C
    19%, -3.3%, ., 4.0%, -5, ., 3.7
CC(C)Sc1nc2sc3c(c2c(=O)n1Cc1ccccc1)CCCC3
    ., -1.4%, 5, 2.8%, ., 0.1, .

The list continues.
Values in the order – Sfp inh, ClpP mod, TRPML1 blocker, PINK1 expr mod, TRPV1 potentiator, TRPML1 ag, Menin MLL FP FL
O=C(/C=C/c1ccccc1Cl)Nc1ccc2c(c1)C(=O)NC2=O
    -13%, 3.9%, 7, -0.2%, 4, 0.0, 0.3
COc1cccc(NC(=O)CN(C)C(=O)CSCC(=O)Nc2ccc(C)cc2)c1
    ., -0.3%, -4, 3.4%, 3, 0.7, .
CC(=O)O[C@H]1CC[C@@]2(C)[C@@H](CC[C@H]3[C@@H]4CC[C@H](C(C)O)[C@@]4(C)CC(=O)[C@@H]32)C1 (some centres not stated)
    ., 0.2%, -18, -0.4%, -4, -0.5, .
CCOc1ccccc1C(=O)NCC(c1ccc(N(C)C)cc1)N1CCc2ccccc21 (configuration not stated)
    ., ?, 17, 0.9%, ., 0.6, .
Cc1ccc(CC(=O)NCC(c2ccco2)N(C)C)cc1C (configuration not stated)
    1%, ., 23, -0.9%, 0, 0.3, 3.3
O=C(c1cccc([N+](=O)[O-])c1)N1CCOCC1
    8%, 0.1%, -11, 0.4%, 0, -0.3, -6.6
COc1ccc2c(=O)c3c(=O)n(-c4ccccc4)c(-c4ccc(C)cc4)nc3oc2c1
    -3%, ?, 13, 13%, 0, -0.6, 2.9
Cc1ccnc(NC(=O)C2(c3cccs3)CCOCC2)c1
    11%, -1.2%, 19, 2.9%, 22, 0.2, 0.6
CCCCSc1nnc([C@@H](NC(=O)OC(C)(C)C)C(C)C)o1
    10%, -0.9%, 9, 0.5%, -10, 0.8, 0.0
COCCCNC(=O)CCn1c(=O)c2ccccc2n(CC(=O)Nc2c(C)cccc2C)c1=O
    16%, -29%, 51, 2.4%, -1, -0.2, 2.0
O=C(/C=C/c1ccccc1)Nc1scc(-c2ccccc2)c1C(=O)O
    21%, 0.5%, 2, -1.3%, 18, 2.4, 4.0
CN(Cc1ccco1)C(=O)c1ccc2c(c1)N(Cc1ccccc1F)C(=O)c1ccccc1S2
    ., -17%, 54, -1.0%, ., 3.3, .
CCCn1c(=O)[nH]c(=O)c2c1nc(-c1ccc(C#N)cc1)n2CCOC
    -1%, ., 37, -1.4%, -1, 0.4, 6.2
COc1cc(NC(=O)c2ccccc2F)ccc1NC(=O)c1cc2ccccc2o1
    -25%, ., 3, -0.5%, -7, 0.3, -5.3
Cc1ccc2c(c1)C(=O)N1[C@H]3c4cc(Br)ccc4OC[C@@H]3[C@H](c3ccccc3)[C@]1(C)C(=O)N2
    ., -9.9%, -6, 3.2%, ., -0.4, .
O=C(Nc1cc(-c2nc3cc(Cl)ccc3o2)ccc1Cl)c1cccs1
    ., 5.5%, -5, 0.4%, ., 1.9, .
COc1ccccc1Nc1nc(N)nc(CSC(=S)N2CCCCC2)n1
    19%, -2.0%, -15, -1.0%, 4, 1.6, 0.9
CCCN(C(=O)c1cccc(S(=O)(=O)N2CCCc3ccccc32)c1)C1CCS(=O)(=O)C1 (configuration not stated)
    ., -0.3%, 5, -0.3%, -1, 0.1, .
Cc1ccc(NC(=O)CSc2n[nH]c(-c3ccncc3)n2)cc1
    7%, 0.2%, 17, -3.1%, -1, 1.4, -0.3
Cn1ncc(Cl)c1C(=O)Nc1cccc(Cl)c1
    20µM*, 1.7%, 1, -2.9%, -16, 0.9, -1.4

(more compounds)
Values in the order – Sfp inh, ClpP mod, TRPML1 blocker, PINK1 expr mod, TRPV1 potentiator, TRPML1 ag, Menin MLL FP FL
CCn1c(SCC(=O)Nc2ccc(C(C)=O)cc2)nc2c([nH]c3ccccc32)c1=O
    -9%, -1.6%, 11, 1.3%, -1, -0.1, .
O=C(/C=C/c1ccc(S(=O)(=O)NCc2ccco2)cc1)NCc1ccccc1Cl
    18%, -5.3%, 20, -2.5%, 6, 2.7, 0.0
CC1CC(C)CN(S(=O)(=O)c2ccc(C(=O)NCc3ccc4c(c3)OCO4)cc2)C1 (configuration not stated)
    -1%, -8.8%, 34, -1.7%, 3, 2.8, 0.4
O=C(c1cc2c(s1)CCCC2)N1CCN(c2ccccc2)CC1
    -2%, ., -14, -1.0%, -7, 0.1, 2.8
Nc1c(C(=O)N2CCCC2)sc2nc3c(cc12)CCCCCC3
    56µM*, 0.6%, 20, 9.2%, -14, 0.3, 2.1
CC1CCCCN1C(=O)c1ccc(COc2ccc([N+](=O)[O-])cc2)o1 (configuration not stated)
    -27%, 0.3%, -14, -0.7%, 18, 0.6, 4.2
CC(C)NC(=O)c1cc2n(n1)C(C(F)(F)F)CC(c1ccco1)N2 (configuration not stated)
    10%, -1.6%, 24, 0.0%, -1, 2.8, 0.4
COCCNC(=O)C1(C)CCN(C(=O)/C=C/c2ccccc2)C1 (configuration not stated)
    ., 1.4%, 7, 0.1%, ., 0.1, .
Fc1cccc(CSc2nnc3ccc(-c4ccncc4)nn23)c1
    4%, 1.0%, ., 1.3%, -24, ., -0.4
O=C(CSc1nn(-c2ccc(F)cc2)c(=S)s1)N1CCN(C(=O)c2ccco2)CC1
    20%, 0.0%, -1, ., -6, 1.1, 2.3
O=C(O)c1ccc(C=NN=C2c3ccccc3-c3ccccc32)cc1
    ., 1.0%, 43, -4.6%, ., -0.1, .
CC1CCC/C(=N/NC(=O)c2ccccc2-n2cccc2)C1 (configuration not stated)
    23%, -2.1%, 3, 2.9%, 0, 0.9, 4.2
Cc1oc(S(=O)(=O)N2CCCC2)cc1C(=O)Nc1ccc(F)cc1
    0%, ., 1, 5.3%, 6, 0.3, 1.0
CC(C(=O)NCc1ccccc1)n1cc([N+](=O)[O-])cn1 (configuration not stated)
    11%, -0.8%, -9, -3.2%, -3, 2.3, -3.2
CCCCn1c2ccc(F)cc2c2nnc(NN)nc21
    -1%, -0.1%, -9, ?, -2, 0.4, -6.2
Cc1ccc(-c2cc(-c3ccccc3)c3c(N)c(S(C)(=O)=O)sc3n2)cc1
    ?, ?, 16, -2.0%, 15, -0.9, ?
Cc1cc(C)c2sc(N(CCCN(C)C)C(=O)c3ccc(S(=O)(=O)N4CCCc5ccccc54)cc3)nc2c1
    ., -2.2%, -22, 6.2%, -16, 2.5, .
C=CCN(CC=C)C(=O)C1CCC(C(=O)N(CC=C)CC=C)CC1 (configuration not stated)
    6%, 1.2%, 9, -1.3%, 8, 0.7, -0.3
Cc1cc(C)nc(/N=C(\N)N2CCCCC2)n1
    ?, -3.9%, 7, 3.4%, -6, 1.1, -0.7
CCn1c(=O)c2cc(C(=O)NCCc3cc(OC)ccc3OC)sc2c2ccccc21
    ., -1.5%, 20, 1.3%, ., -0.2, .
CC(C)(C)OC(=O)N1CCC(c2c(C(=O)NCCN3CCCC3)cnn2-c2ccc(Cl)cc2)CC1
    ., -1.3%, -5, -0.4%, ., 0.6, .
